# Ecoli growth – blocks Escherichia coli growth; OD600, 23 h; stronger effect = lower value; OD600 absorbance (concentration not given with the values); 330,000 tested, 0.21% active; AID 1053175;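 active = OD600 absorbance below the run mean of sample wells minus 3.6 SD, in any replicate, cut at about 0.56 in these data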;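 note: stock transfer was 300 nL into about 60 µL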
# UCH37 DUB inh – human UCH37 deubiquitinating enzyme inhibition. 330,000 tested, 0.33% active. Q9Y5K5. AID 588478. inhibition, % (concentration not given with the values). purified proteasome/UCH37, Ub-AMC cleavage fluorescence;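 active = mean of two replicates above 20%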;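 note: 0% = compound-free wells with enzyme and 100% = wells lacking proteasome; stock transfer was 100 nL into about 20 µL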
# Target sequence (Q9Y5K5 whole entry, looked up): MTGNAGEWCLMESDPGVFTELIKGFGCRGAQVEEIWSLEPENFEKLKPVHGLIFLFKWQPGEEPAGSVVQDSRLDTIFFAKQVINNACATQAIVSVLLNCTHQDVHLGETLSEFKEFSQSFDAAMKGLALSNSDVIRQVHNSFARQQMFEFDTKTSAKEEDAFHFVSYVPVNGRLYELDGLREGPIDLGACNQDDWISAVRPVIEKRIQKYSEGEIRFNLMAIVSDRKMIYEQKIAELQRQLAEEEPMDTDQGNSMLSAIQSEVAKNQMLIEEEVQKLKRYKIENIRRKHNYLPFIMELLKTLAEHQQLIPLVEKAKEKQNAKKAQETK
#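 Reagent: Ub-AMC substrate; assay system: Proteasome-associated human UCH37 deubiquitinase; controls: no-proteasome and no-compound wells; read-out: % inhibition of Ub-AMC cleavage fluorescence; timing: 30 min preincubation with enzyme, 25 min cleavage at room temperature; signal: AMC fluorescence from Ub-AMC cleavage, excitation 355 nm, emission 460 nm; buffer or medium: Tris-HCl pH 7.4 plus ovalbumin, ATP-MgCl2, DTT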
# AF4-AF9 inh – blocks AF4 peptide binding to human AF9 | P42568 | AlphaScreen, biotin-AF4 peptide binding to FLAG-AF9 | inhibition, % at 10 µM | 350,000 tested, 0.47% active;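 active = every replicate reaching a set inhibition limit, whatever the replicate mean, cut at about 25% in these data; inconclusive = mean inhibition reaches that limit but some replicates miss it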;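 note: 0% = plate neutral control median and 100% = total signal loss; the record names both 10 and 1 µM as test concentration; the first replicate is given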
# Target sequence (P42568 whole entry, looked up): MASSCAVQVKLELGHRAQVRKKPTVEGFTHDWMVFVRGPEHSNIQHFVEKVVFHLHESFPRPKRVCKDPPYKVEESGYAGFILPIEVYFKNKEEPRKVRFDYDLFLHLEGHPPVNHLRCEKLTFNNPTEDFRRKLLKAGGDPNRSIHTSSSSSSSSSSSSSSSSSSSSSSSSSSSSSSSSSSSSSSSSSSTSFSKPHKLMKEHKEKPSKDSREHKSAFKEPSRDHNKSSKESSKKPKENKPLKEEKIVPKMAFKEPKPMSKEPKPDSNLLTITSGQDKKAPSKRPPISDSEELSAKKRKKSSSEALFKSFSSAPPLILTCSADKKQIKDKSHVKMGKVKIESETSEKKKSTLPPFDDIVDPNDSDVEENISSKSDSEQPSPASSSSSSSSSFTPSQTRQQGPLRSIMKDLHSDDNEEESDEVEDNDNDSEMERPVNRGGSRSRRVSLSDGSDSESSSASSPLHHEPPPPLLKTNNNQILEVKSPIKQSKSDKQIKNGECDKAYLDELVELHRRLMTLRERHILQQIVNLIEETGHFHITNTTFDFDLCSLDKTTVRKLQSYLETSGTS
# Vif TR-FRET – HIV-1 Vif–A3G interaction blockers – biochemical, TR-FRET, GST-Vif 1-94, biotin-A3G peptide, dose response retest, primary screen (AID 1117319). TR-FRET GST-Vif / biotin-A3G peptide binding; higher % means a stronger effect; test concentration not given here; strong numbers were not always called active. inhibition, %, or IC50 in µM where a hit was titrated. 260,000 tested, 0.57% active;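 active = above the screen mean plus three standard deviations and confirmed in dose response; inconclusive = results disagree or hit not tested in dose response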;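 note: Vif residues 1-94 fused to GST binding biotinylated APOBEC3G peptide 110-148; 0% = full assay without inhibitor and 100% = GST in place of GST-Vif; retest series ran down from 100 µM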
# FGF22 binding – shifts melting point of recombinant human FGF22; recombinant FGF22 thermal shift, SYPRO orange fluorescence; percent of sucrose octasulfate shift, DMSO zero; calls only at 9.99 µM; 340,000 tested, 1.5% active; AID 651658;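 active = melting point raised past a set limit in the mean and every replicate; inconclusive = no clear call; three in four hits are not shown here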
# Target sequence (Q9HCT0 whole entry, looked up): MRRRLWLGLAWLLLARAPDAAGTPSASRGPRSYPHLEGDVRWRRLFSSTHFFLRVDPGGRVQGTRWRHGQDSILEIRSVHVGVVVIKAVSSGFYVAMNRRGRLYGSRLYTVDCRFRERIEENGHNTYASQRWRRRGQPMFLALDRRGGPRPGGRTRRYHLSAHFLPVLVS
# HNF4A DNA FP – change in binding of human HNF4 alpha to DNA | 360,000 tested, 0.3% active | HNF4a-FITC DNA binding, fluorescence polarization, 1 h | activity change, % at 10 µM; in the data active = activity change above about 30%, passing the limit was not always enough;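 note: controls were the assay level and a saturating level of protein; the project sought stronger binding though the title names inhibitors; some compounds called inactive have numbers as strong as hits; positive values seem to mean higher polarization but the record does not say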
# RanGTP-Imp inh – disruptors of Ran-importin-beta complex formation – biochemical, FRET, CFP-Ran, YFP-importin-beta, homogeneous, primary screen | inhibition, % (no concentration beside the values) | cell-free CFP-Ran/YFP-importin-beta FRET ratio | 300,000 tested, 1.1% active;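 active = most replicates above 15%; inconclusive = exactly half above 15%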;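 note: 0% = DMSO wells and 100% = Ran loaded with GDP instead of GTP; wells of about 40 µL received 100 nL stock; the first replicate is given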
# The depositor's hits bear a star; i = inactive; ? = inconclusive; nt = not tested or not shown; & = joins results of further samples.
Ecoli growth	UCH37 DUB inh	AF4-AF9 inh	Vif TR-FRET	FGF22 binding	HNF4A DNA FP	RanGTP-Imp inh	mol
0.55	8.5	nt	3%	nt	0.2	-3.8	O=C1c2cccc3c(Cl)ccc(c23)C(=O)N1O
0.72	-0.4	nt	-7%	nt	0.6	-1.3	COc1cccc(CNC(=O)CCS(=O)(=O)c2cccs2)c1
0.62	4.3	3.2	nt	i	-4.3	1.3	O=C(NCCN1CCCCC1)Nc1cccc(C(F)(F)F)c1
nt	nt	nt	9%	nt	-2.3	-0.6	CC(C)(C)NC(=O)C(=O)N/N=C/c1cccs1
0.74	-1.0	nt	17%	nt	0.6	-9.2	CCCCN1C(=O)NC2NC(=O)NC21 (stereo unspecified)
nt	nt	14	2%	i	5.0	-1.9	Cc1ccccc1C(=O)N1CCc2cc(-c3csc(NC(=O)CN4CCCC4)n3)ccc21
0.7	0.8	-3.7	nt	i	-1.1	3.7	COc1ccc(C(=O)NCc2nnc(SCC(=O)NCCc3ccccc3)o2)cc1
0.72	2.9	7.2	2%	i	3.7	3.3	CCCc1nnc(NC(=O)CS(=O)(=O)c2ccc(C)cc2)s1
0.63	0.5	2.7	nt	i	-1.8	-0.4	CCc1ncc(CN2CCCC(C(=O)Nc3cccc(-c4ccc(F)cc4)c3)C2)cn1 (stereo unspecified)
0.66	1.3	-2.2	-4%	i	3.3	12	CC(C)NC(=O)C(c1ccc(F)cc1)N(C(=O)CCC(=O)Nc1ccccn1)C1CCCCC1 (stereo unspecified)
0.68	5.2	-1.4	nt	i	0.9	1.0	C=CCOc1cccc(C2C(C(=O)c3ccc(C)o3)=C(O)C(=O)N2CCCn2ccnc2)c1 (stereo unspecified)
0.73	0.8	0.9	6%	i	-4.4	-4.6	O=C(NCC1CCCO1)C1c2ccccc2C(=O)N1C1CCCCCC1 (stereo unspecified)
0.71	-4.0	-1.8	-7%	i	2.7	0.8	O=C(c1ccc(C(F)(F)F)cc1)C1CCCN(C(=O)CCc2cnccn2)C1 (stereo unspecified)
0.66	0.7	-0.8	5%	i	-1.3	-0.1	CCc1cc2c(SCC(=O)NC3CCS(=O)(=O)C3)ncnc2s1 (stereo unspecified)
0.69	2.8	-1.8	nt	i	-1.7	nt	CC1CCN(C(=O)CCNS(=O)(=O)c2ccc(Br)cc2)CC1
0.77	-285	nt	-18%	nt	0.5	4.3	CCOC(=O)N1CCC(NC(=O)c2cc(C)c3c(C)nn(-c4ccccc4)c3n2)CC1
0.69	5.9	-1.0	5%	nt	1.9	-2.4	CC(C)N(C(=O)CC1ON(C)C(=O)N1c1ccc(Cl)cc1)C(C)C (stereo unspecified)
nt	6.3	-5.3	nt	i	2.5	-4.0	CCN1C(=O)[C@H]2[C@@H](c3ccc(OC)cc3)N3C(=O)CN(CCOC)C(=O)[C@@]3(C)[C@H]2C1=O
nt	nt	-0.2	-6%	i	3.8	0.3	CCOC(=O)C1=c2s/c(=C\c3ccncc3)c(=O)n2C(N)=C(C(=O)OC)C1c1ccncc1 (stereo unspecified)
nt	nt	0.8	nt	i	-1.6	-0.1	Cc1c(NC(=O)Nc2cccc([N+](=O)[O-])c2)c(=O)n(-c2ccccc2)n1C
0.65	2.4	-0.5	nt	i	nt	2.2	Cc1cc(CC(=O)O)c2oc(-c3ccoc3)cc(=O)c2c1
0.73	0.1	nt	-6%	nt	-0.4	-0.1	COC(=O)CNC(=O)C1CCCN1C(=O)OC(C)(C)C (stereo unspecified)
0.63	2.0	29*	nt	i	-0.1	4.5	Cc1ccc(-n2cc(CN3CCN(Cc4nccn4C)CC3)c(-c3cccc(C)c3)n2)cc1
0.67	-0.5	-0.9	5%	i	1.0	1.7	CCC(=O)c1ccc(OCC(O)Cn2nnc3ccccc32)cc1 (stereo unspecified)
0.72	-1.9	-83	-1%	i	0.5	4.6	COc1ccc(C)cc1S(=O)(=O)N(CC(=O)Nc1ccc2c(c1)OCCO2)Cc1ccccc1
0.68	3.3	-1.5	-2%	i	3.9	?	CCOC(=O)c1c(NC(=O)CSc2ncccn2)sc(C(=O)NC)c1C
0.7	0.0	nt	?	nt	-0.4	-0.9	CCOc1cc(C(=O)NC(C)c2ccncc2)cc(OCC)c1OCC (stereo unspecified)
0.68	-0.7	nt	6%	nt	-2.6	1.9	COc1ccccc1CNC(=O)CN1C(=O)C(C)N(c2ccc(C)cc2)C1=O (stereo unspecified)
0.68	3.3	nt	6%	nt	4.1	-0.8	Cc1snc2sc(C(=O)c3ccc(Br)cc3)c(N)c12
0.72	2.0	-6.0	13%	i	0.8	1.8	CC1CCCC(C)N1S(=O)(=O)c1ccc(S(=O)(=O)N2CCOCC2)cc1 (stereo unspecified)

Ecoli growth	UCH37 DUB inh	AF4-AF9 inh	Vif TR-FRET	FGF22 binding	HNF4A DNA FP	RanGTP-Imp inh	mol
0.67	4.5	0.8	nt	i	0.4	10	COc1ccc(N2CCN(S(=O)(=O)c3c(C)nc4scc(C)n4c3=O)CC2)cc1
0.67	4.4	nt	1%	nt	-2.4	?	Cc1ccc(N2C(=O)CC(n3ccnc3)C2=O)cc1C (stereo unspecified)
0.68	5.9	6.9	-8%	i	-5.2	0.0	CC(C)(C)NC(=O)c1cccc2c1C(=O)c1ccccc1-2
0.74	-47	-3.7	-4%&10%	nt	0.5	-3.4	COc1ccc(-c2nc3c(=O)n(C)c(=O)[nH]c3n2CCc2ccccc2)cc1
0.7	4.4	2.3	nt	i	-2.7	0.7	Cc1ccc(NC(=O)N2CCN(C(=O)c3ccco3)CC2)cc1Cl
0.7	2.3	nt	-10%	nt	3.9	0.6	Cc1ccccc1NC(=S)NCc1ccco1
nt	nt	-7.7	nt	i	1.0	3.8	COC(=O)c1c(NC(=O)CSc2ncn[nH]2)sc(C)c1C
0.72	2.0	nt	-8%	nt	0.3	1.3	COc1ccc(C(CC(=O)O)NC(=O)Cc2ccccc2)cc1 (stereo unspecified)
0.67	3.3	nt	2%	nt	14	nt	CCc1ccc(-n2c(O)c(C=NCCN(CC)CC)c(=O)[nH]c2=O)cc1
0.8	-1.0	nt	-2%	nt	nt	nt	C[C@@H]1NC(=O)c2cc([N+](=O)[O-])cc(I)c2OCC[C@@H](C(=O)NC(CC(=O)O)C(N)=O)NC(=O)[C@H](CCC(=O)O)NC1=O (stereo partly specified)
0.68	5.1	-3.9	-9%	i	0.4	7.2	Cc1ccccc1C(=O)N1CCC(C(=O)Nc2nc3ccc(F)cc3s2)CC1
0.68	2.1	-10	?	i	2.3	-0.2	CCc1nc2ccccc2n1Cc1ccc(F)cc1
0.67	-0.5	nt	-11%	nt	3.9	0.9	CCCC(=O)NCCCc1nc2ccccc2n1CCC
0.68	7.0	-0.4	2%	i	0.7	-1.2	Cc1ccc(-n2[nH]c(=O)c(-c3ccccn3)c2C)cc1
0.64	1.3	nt	9%	nt	0.6	0.8	O=C(NCCCN1CCC(Cc2ccccc2)CC1)C1CC(=O)N(C2CCCCCC2)C1 (stereo unspecified)
0.7	2.2	nt	2%	nt	1.5	-4.5	COc1ccc(OCCOC(=O)c2cccs2)cc1
nt	nt	nt	23%	nt	1.3	?	COc1cccc(/C=N\n2c(C)nnc2C)c1OC
0.72	1.1	-1.1	-8%	i	2.4	nt	CC(=O)Nc1ccc(S(=O)(=O)Nc2ccc3nc(C)sc3c2)cc1
0.72	2.0	-0.8	7%	i	5.9	-0.6	O=C(Cc1c[nH]c2ccccc12)NCc1ccncc1
0.74	5.9	-0.7	-9%	i	3.5	-2.8	O=C(O)CN1C(=O)CCS(=O)c2ccccc21 (stereo unspecified)
0.74	5.0	-5.3	nt	nt	-0.1	3.8	Cc1cc(O)c(NC(=O)c2ccc(C)c([N+](=O)[O-])c2)cc1C
0.72	9.0	-7.9	-13%	i	3.0	-0.8	CCCCNC(=O)COC(=O)c1ccc(N(C)C)cc1
0.7	3.1	-2.2	6%	nt	-2.0	nt	O=C(O)c1ccccc1NS(=O)(=O)c1cccc(NS(=O)(=O)c2cc(Br)ccc2Br)c1
0.63	2.3	2.9	nt	i	1.3	5.5	O=C(CCc1nnc(Cc2ccc3c(c2)OCO3)o1)NCCc1ccccc1Cl
0.64	1.1	-1.8	-3%	i	0.8	1.4	Cc1ccc(C(=O)Nc2ccc(Nc3ccccc3)cc2)c(Cl)c1
0.71	1.3	2.5	12%	i	2.9	6.2	O=C(CSc1nc2cc(Cl)ccc2s1)c1cc2ccccc2o1
0.73	-0.7	nt	?	nt	-0.8	3.8	COc1ccc(CCNC(=O)c2sc3cc(C)ccc3c2Cl)cc1
0.7	0.4	-1.9	6%	i	5.6	nt	CC(C)N(Cc1ccccc1)C(=O)CN1C(=O)NC2(CCCC2)C1=O
0.74	1.5	-1.2	2%	i	-0.8	nt	Cc1cc(NC(=O)CSc2nnc(CNC(=O)c3ccccc3)o2)no1
0.7	1.1	nt	4%	nt	-1.4	1.2	O=C(c1ccc2c(c1)OCO2)N(Cc1ccco1)C1(C(=O)NC2CCCCC2)CCCCC1

# A few values from above:
# For HNF4A DNA FP, `O=C(CSc1nc2cc(Cl)ccc2s1)c1cc2ccccc2o1` has 2.9
# For AF4-AF9 inh, `O=C(CCc1nnc(Cc2ccc3c(c2)OCO3)o1)NCCc1ccccc1Cl` has 2.9

# The list continues:
Ecoli growth	UCH37 DUB inh	AF4-AF9 inh	Vif TR-FRET	FGF22 binding	HNF4A DNA FP	RanGTP-Imp inh	mol
0.73	1.9	nt	0%	nt	-0.1	-1.1	COc1ccc(NC2(c3ccc(Cl)cc3)C(=O)c3ccccc3C2=O)cc1
0.7	-2.1	0.4	7%	i	0.4	-3.5	CCC1(c2ccccc2)NC(=O)N(CC(=O)Nc2cc(S(=O)(=O)N3CCOCC3)ccc2OC(C)C)C1=O (stereo unspecified)
0.64	1.6	2.7	nt	i	-1.6	-1.5	O=C(Nc1ccc([N+](=O)[O-])cc1Br)c1cccnc1
0.66	-1.6	-40	3%	i	0.7	2.1	COc1ccc(-c2c3c(=O)n(C)c(=O)n(C)c3cn2-c2cccc(OC)c2)cc1
0.7	0.9	1.1	-11%	i	0.0	1.5	COc1cccc(CN(C)CC(=O)Nc2ccccc2C(=O)Nc2ccccc2)c1
nt	nt	nt	12%	nt	-0.8	-2.5	Cc1ccc(NC(=O)/C(CN(C)C)=N\O)cc1
0.67	1.5	-0.8	-1%	i	2.2	-0.5	O=C(NCCOc1ccccc1)c1ccccc1Cl
0.68	1.9	2.2	nt	i	3.0	-0.7	CCC(C)[C@H](NC(=O)C1CC(=O)N(c2ccc(OC)cc2)C1)C(=O)NC1CCCC1 (stereo partly specified)
0.72	4.8	-5.2	nt	i	4.2	?	CC1CCN(CC(=O)Nc2nccs2)CC1
0.66	3.1	2.2	20%	i	2.2	-1.4	O=C1NCCN1CCNS(=O)(=O)c1ccc(F)cc1
0.7	5.2	-1.3	-2%	i	-0.8	1.5	COc1ccccc1C(=O)COC(=O)c1c(-c2ccccc2)noc1C
0.69	1.1	-2.5	nt	i	4.2	1.3	CCc1ccc(-c2cc(C)no2)cc1S(=O)(=O)NCCc1ccc(OC)c(OC)c1
0.69	-3.0	-1.6	0%	i	1.9	nt	CCOc1ccc(C(=O)NNC(=O)CNC(=O)c2ccc(C)s2)cc1OC
nt	nt	-2.4	nt	i	-1.1	nt	CC(=O)c1c(O)c(C)c(O)c2c1OC1=CC(=O)/C(=C(/C)N)C(=O)C12C (stereo unspecified)
nt	nt	2.6	nt	i	-2.2	nt	Cc1ccc2nc(C3CCCCC3)c(Cc3ccsc3)n2c1
nt	nt	0.5	nt	i	2.6	nt	CC(=O)Nc1cc(-c2ccc(S(C)(=O)=O)cc2)cn2c(-c3ccc(F)cc3)cnc12

# Screens from PubChem.

# The list is partial. The share of hits here may be higher or lower than overall.
